Mtb bLac sens = beta-lactam sensitization of Mtb H37Rv | M. tuberculosis H37Rv growth with meropenem, percent inhibition; hits of this screen are not shown here | inhibition, % at 25 µM | actives 0.27% (n = 330,000) | AID 434955;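 active = about 74% or more and at least 40 points above the plate without the antibiotic, then above 30% in a dose series; inconclusive = first-round hits that could not be retested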;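 note: growth measured after seven days incubation then overnight dye step; 0% = bacteria only wells and 100% = bacteria with antibiotic; twin plates without the antibiotic show which effects depend on it; some results filed as inactive read as strong as hits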
Numbers without * were called inactive; ? = inconclusive. Only part of the results is shown (hit frequency here may not be typical).

structure,Mtb bLac sens
O=C(Cc1ccc(S(=O)(=O)N2CCOCC2)s1)Nc1cc(C(F)(F)F)cc(C(F)(F)F)c1,0.1
CN(C)S(=O)(=O)c1ccc(N2CCCC2)c(C(=O)NCC(=O)Nc2ccc(F)c(F)c2)c1,3.0
CC(=O)Nc1ccc(NC(=O)C(C)Sc2n[nH]c(-c3cccs3)n2)cc1 (stereo not given),3.6
CN(C(=O)c1ccco1)c1nc(-c2ccccc2)cs1,-9.9
Nc1cccc2cc(-c3ccccc3)oc12,3.4
CN(CC(=O)Nc1ccccc1Br)C(=O)CN1CCN(Cc2ccc(Cl)cc2)CC1,4.0
COc1ccc(C(=O)N/C(=C\c2ccccc2)C(=O)Nc2ccc(C(=O)NCC(=O)O)cc2)cc1,-3.3
COC(=O)C1CCN(C(=O)CN2C(=O)NC3(CCC(C)CC3)C2=O)CC1 (stereo not given),2.9
CC1Cc2ccccc2N1S(=O)(=O)c1cccc(C(=O)OCC(=O)N2CCOCC2)c1 (stereo not given),0.2
Cc1c(C(=O)OCC(=O)NC2CCCCC2)oc2ccccc12,1.9
COc1cc(NC(=O)CSc2nnc(-c3cc(C)on3)o2)cc(OC)c1,-6.8
CN(c1ccccc1)S(=O)(=O)c1cccc(NC(=O)c2cccc(C#N)c2)c1,-8.3
Nc1c(N(CCC2=CCCCC2)C(=O)c2ccccc2F)c(=O)[nH]c(=O)n1Cc1ccccc1,-0.2
CC(C)NC(=O)N(C)C[C@H]1Oc2c(NS(=O)(=O)c3cccs3)cccc2C(=O)N([C@H](C)CO)C[C@@H]1C,0.3
COc1ccc(OC)c(N=C2SCCCN2C(=O)c2ccc(N3C(=O)CCC3=O)cc2)c1,1.8
Cc1ccc(NC(=O)Cn2cnc([N+](=O)[O-])c2)cc1C,-6.6
CC1CC(C)CN(C(=O)c2cccc(N3C(=O)c4ccccc4C3=O)c2)C1 (stereo not given),-9.8
Cc1nn(CC(=O)NC(=O)c2ccccc2)c(C)c1[N+](=O)[O-],1.3
C=CC[C@@H](CC(=O)N[C@H](CO)Cc1ccccc1)C(=O)N[C@@H](C)COC(=O)[C@@H](CC=C)Cc1ccc(F)cc1,-7.6
C=CC(C)(C)O[C@@H]1O[C@H](CO)[C@@H](O)[C@H](O)[C@H]1O,-3.9
CC[C@@H](C)[C@@H]1CN([C@@H](CN2CCC[C@H]2CN2C(N)=NC[C@H]2C(C)C)C(C)C)C(=N)N1CCc1ccc(Cl)c(Cl)c1,99.7
O=C(Cc1ccc(S(=O)(=O)N2CCOCC2)s1)NNC(=O)c1ccccc1Cl,-1.6
CCN1C(=O)C(=O)c2cc(C)ccc21,4.0
Cc1nc(NC(=O)COC(=O)CNC(=O)c2ccco2)c(Cl)cc1Cl,-7.4
COc1cccc(-c2c(-c3cc(OC)cc(OC)c3)n(C)c3ccc(-c4cnc(N5CCOCC5)nc4)cc23)c1,0.3

Next section:
structure,Mtb bLac sens
CCCn1nc(C(=O)OCC(=O)Nc2ccc(C(N)=O)cc2)c2ccccc2c1=O,1.8
CN(CC(=O)Nc1cccc(F)c1)CC(=O)N1CCc2ccccc21,-6.9
O=C(NCC1COc2ccccc2O1)C1CCN(S(=O)(=O)c2ccc(Cl)cc2)CC1 (stereo not given),-14.2
CCC(C)(C)C1CCC2(CC1)NC(=O)N(CC(=O)NCCc1c[nH]c3ccccc13)C2=O (stereo not given),3.6
CC(C)N(CCC(=O)c1ccc2ccccc2c1)Cc1ccccc1,99.2
CC[C@@H]1CCCCc2ccccc2[C@H](C(=O)C[C@@H](O)CC(C)=O)OC1=O,-1.1
CN1CCC(N(C)C(=O)c2ccc(Cl)c(S(=O)(=O)N3CCc4ccccc43)c2)CC1,-5.2
C[C@H]1CN([C@@H](C)CO)C(=O)Cc2cc(NC(=O)CCC(F)(F)F)ccc2O[C@H]1CN(C)Cc1ccc(C(F)(F)F)cc1,26.6
COc1ccc(CNC(=O)[C@@H](NC(=O)C2CCN(C(=O)[C@@H](N)CCSC)CC2)C(C)C)cc1,-8.3
O=C(CC1C[C@H](C(=O)N2CCOCC2)[C@@]2(CCC3CCCC3)c3[nH]c4ccccc4c3CCN2C1=O)NCCN1CCOCC1 (stereo not given in full),-5.2
COC(=O)c1c(-c2ccc(OC)cc2)sc2ccccc12,48.9
COc1cc(C)ccc1OCc1cc(C(=O)NCc2ccncc2)no1,?
CCOc1ccc(NC(=O)CN(C)C(=O)COc2cccc3c2OC(C)(C)C3)cc1OCC,1.5
COC(=O)C1=C(c2ccc(F)cc2F)C[C@@H]2CC[C@H]1N2C(=O)NCCOc1ccccc1,0.2
Cc1cccc(NS(=O)(=O)c2cccc(C(=O)N3CCCCCCC3)c2)c1,-0.2
C=CCC[C@H](Cc1ccc(F)cc1)C(=O)OC[C@@H](Cc1c[nH]c2ccccc12)NC(=O)[C@@H](CC=C)CC(=O)N[C@@H](CO)Cc1ccccc1,-0.7
O=C(c1ccc(F)cc1)N1CCC(C(=O)N2CCN(S(=O)(=O)c3cccc(F)c3)CC2)CC1,2.1
C[C@]1(CC/C(=C/CO)CO)[C@H](CO)CC[C@@]23COC(=O)C2=CCC[C@@H]31,-7.8
CC(=O)C[C@@H](O)CC(=O)[C@H]1OC(=O)[C@H](C)C/C=C\Cc2ccccc21,-9.2
N#Cc1ccc(NC(=O)C2=COCCO2)cc1,-2.0
CN1/C(=C\C(=O)c2cccc([N+](=O)[O-])c2)Sc2ccccc21,-0.1
CCOC(=O)c1c(C)[nH]c(C(=O)OCC(=O)N(CC(C)C)C2CCS(=O)(=O)C2)c1C (stereo not given),-0.3
O=C(CNC(=O)c1ccccc1)NCCCSc1ccccc1,2.4
CC(=O)c1cccc(OCC(O)CNCCOc2ccc(C)cc2)c1 (stereo not given),3.0
CCOC(=O)C1CCCN(C(=O)c2cccc(S(=O)(=O)N(C)c3ccc(C)cc3)c2)C1 (stereo not given),-6.2

More results follow:
structure,Mtb bLac sens
O=C(OCc1c(-c2ccccc2)ncc2ccccc12)c1ccc(Cl)cc1Cl,4.3
CC(C)C(=O)COc1c2occc2cc2ccc(=O)oc12,-6.3
CC(=O)Nc1ccc(NC(=O)C(C)OC(=O)C2(c3ccccc3F)CCCC2)cc1 (stereo not given),-1.3
O=C1CCC/C=C\C[C@@H](CC(=O)N(CCO)Cc2ccccc2)C(=O)N[C@H](c2ccccc2)CO1,1.0
COc1ccc(NC(=O)c2cccc3c2C(=O)c2ccc(-c4cnc(OC)nc4)cc2S3(=O)=O)cc1,13.6
O=C(Cc1ccc(Br)cc1)OCC(=O)N1CCOCC1,-5.8
Cc1cc(C)cc(-n2ncc3c2CCCC3NC(=O)C2(C(N)=O)CC2)c1 (stereo not given),-2.6
CCOc1ccccc1NC(=O)C(c1ccccc1)N1CCN(CC(=O)N2CCOCC2)CC1 (stereo not given),-8.6
C[C@]12CC[C@H](O)CC1=CC(=O)C1C2CC[C@]2(C)C(=O)CCC12 (stereo not given in full),-0.5
C=CC[C@H](CC(=O)NCCO)C(=O)NC[C@@H](OC(=O)[C@@H](CC=C)CC(=O)OC(C)(C)C)c1ccccc1,-6.5
CCC(C)[C@H]1CNCCN1CCC12CC3CC(CC(C3)C1)C2 (stereo not given in full),-4.4
COc1ccc(S(=O)(=O)N2CCN(CC(=O)N3CCOCC3)CC2)cc1OC,-6.1
O=c1ccc(S(=O)(=O)N2CCCC2)cn1Cc1ccc(Cl)cc1Cl,-5.2
C[C@H]1CN([C@@H](C)CO)C(=O)c2cccc(NC(=O)Nc3ccc(C(F)(F)F)cc3)c2O[C@H]1CN(C)C,-5.2
CCSc1nnc(SCC(=O)Nc2cc(C)on2)s1,-2.1
Cc1ccc(-c2cc(C(=O)OCC(=O)NC3CC3)c3ccccc3n2)cc1,65.7
COc1ccc(C2=CC(=O)CC(C)(C)C2)cc1OC,7.9
O=C1C(Cl)=C(N2CCOCC2)C(=O)N1c1ccccc1F,8.6
COC(=O)C1=C(c2ccc(F)cc2F)C[C@@H]2CC[C@H]1N2C(=O)NCCNC(C)=O,1.6
O=C(c1cccc(F)c1)N1CCN(C(=O)c2cc3nc(-c4ccco4)cc(C(F)(F)F)n3n2)CC1,5.4
O=C(Cc1c(F)cccc1Cl)NNC(=O)c1ccncc1,-5.7
COC(=O)C1=C(c2ccc(OC(F)(F)F)cc2)C[C@@H]2CC[C@H]1N2C(=O)NCCOc1ccccc1,-3.6
COc1cccc(/C=C/C(=O)OCC(=O)c2c[nH]c3ccccc23)c1,2.7
CN(C(=O)COC(=O)CCC1CCCCC1)c1c(N)n(Cc2ccccc2)c(=O)[nH]c1=O,0.7
COc1ccc(S(=O)(=O)NCC2CCCO2)cc1Cl (stereo not given),-17.7

The listing continues.
structure,Mtb bLac sens
CCn1c(SCC(=O)OC)nnc1-c1c[nH]c2ccccc12,-2.0
COc1ccc(OC)c(-n2c(SCC(=O)NCC3CCCO3)nc3ccccc3c2=O)c1 (stereo not given),-10.3
CN1[C@@H]2CC[C@H]1CC(OC1c3ccccc3CCc3ccccc31)C2 (stereo not given in full),6.9
CN(Cc1ccc(F)cc1)C(=O)CNC(=O)c1cccs1,1.8
CC(C)(C)OC(=O)N[C@H](C(=O)OC(C)(C)C)c1ccc(Br)cc1,-1.7
CC(=O)N1CCN(S(=O)(=O)c2ccc3c(c2)CCC(=O)N3)CC1,-9.0
Cc1nc(SCc2nc3cc(Cl)c(F)cc3[nH]2)c2oc3ccccc3c2n1,-10.1
Cc1ccc(NS(=O)(=O)c2cccc(C(=O)N3CCN(C(=O)c4ccco4)CC3)c2)cc1,-2.6
C[C@@H]1COC(=O)[C@H](Cc2ccc(F)cc2)CC/C=C/C[C@@H](CC(=O)N[C@@H](CO)Cc2ccccc2)C(=O)N1,-2.9
O=C(Cc1n[nH]c(=O)c2ccccc12)Nc1cccc(S(=O)(=O)N2CCCCCC2)c1,48.2
CCOP(=S)(OCC)SCCSCC,-1.6
CC(C)(C)OC(=O)Nc1ccc([C@H](NC(=O)OC(C)(C)C)C(=O)OC(C)(C)C)cc1,-5.7
O=C(NCCc1ccccn1)c1cncc(Br)c1,-14.4
CCOc1ccc(NC(=O)[C@@H]2CCCN2C(=O)c2cccs2)cc1S(=O)(=O)N1CCCCC1,9.9
COc1ccc(NC(=O)N(C)C[C@H]2Oc3ccc(NC(=O)Cn4cnnn4)cc3C(=O)N([C@H](C)CO)C[C@@H]2C)cc1,-1.6
NC(=O)c1nc(C(=O)N2CCCCC2)c2ccccc2n1,-3.3
CN(Cc1ccccc1)C(=O)c1ccc(NC(=O)Cc2cccc(NC(=O)C3CCCN(C(=O)C4CCCC4)C3)c2)cc1 (stereo not given),0.2
O=C1NC(=O)c2cc3ccccc3cc21,-9.1
CCN(C[C@H]1N[C@@](C)(C(=O)OC)[C@H]2C(=O)N(C)C(=O)[C@@H]12)S(=O)(=O)c1ccc(C(F)(F)F)cc1,-0.5
O=C(NCc1ccccc1Cl)c1cc(=O)[nH]c2ccccc12,3.8
C/C=C(\C)C(=O)O[C@@H]([C@H](O)c1cc2ccc(=O)oc2cc1OC)C(C)(C)O,-8.0
COc1ccccc1CNC(=O)CN(C)CC(=O)Nc1ccccc1Br,-7.3
CC(OC(=O)C1CCN(c2ccc(C(F)(F)F)cn2)CC1)C(=O)NC1CCCCC1C (stereo not given),9.6
Cc1c(NS(=O)(=O)c2cccc(C(=O)N3CCC(C(N)=O)CC3)c2)c(=O)n(-c2ccccc2)n1C,-9.5
CC(C)(C)OC(=O)NCc1ccc(CNC(=O)c2nc[nH]c2C(=O)NCc2ccc(CNC(=O)OC(C)(C)C)cc2)cc1,0.1

(next part)
structure,Mtb bLac sens
O=C1C=C(c2ccc(Oc3ccccc3)cc2)C[C@@H](c2ccc3c(c2)OCO3)C1,56.8
O=C(COC(=O)Cc1c(Cl)cccc1Cl)NCc1ccco1,-6.0
CC(NC(=O)C12CC3CC(CC(C3)C1)C2)C(=O)NN=Cc1ccc([N+](=O)[O-])o1 (stereo not given),99.8
O=C(CN1CCN(C(=O)CNC(=O)c2ccc(N3CCCC3=O)cc2)CC1)Nc1ccccc1Cl,-2.1
Cc1ccc(C(=O)O)cc1NC(=O)C1CCN(S(=O)(=O)c2ccc3c(c2)OCCO3)CC1,-5.0
CC(=O)NCCc1ccc(C(=O)COC(=O)c2ccco2)cc1,-1.2
CCOC(=O)[C@H]1[C@H]2COc3ccc(OC)cc3[C@@H]2N2C(=O)c3ccc(F)cc3NC(=O)[C@@]12C,3.3
COc1ccc(-c2cc3ccc(F)cc3cn2)cc1,0.9
Cc1cc(=O)oc2cc(OCC(=O)Nc3ccc4[nH]c(=O)[nH]c4c3)ccc12,-0.2
Cc1csc(NC(=O)CSc2sc3c(O)cc(=O)[nH]c3c2C#N)n1,0.7
COc1ccc(C(=O)NCc2ccc3c(c2)OCO3)cc1S(=O)(=O)N1CCCC1,2.5
CCSc1ccc([C@@H]2[C@H]3C(=O)N(C)C(=O)[C@H]3[C@]3(C(=O)OC)CCCCN23)cc1,-2.2
O=C(CN1CCN(c2ccc(O)cc2)CC1)Nc1ccc2c(c1)OCCCO2,3.7
